Screens (PubChem)
Beta2AR agonist – human beta-2 adrenergic receptor agonism by FAP | P07550 | Am2.2-beta2AR cells, FAP receptor internalization, flow cytometry; reference of the scale not given here | response, % (concentration not given with the values) | 340,000 compounds, 0.43% hits;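 active = response above a set limit, near 3 SD of response in nonfluorescent compounds, cut at about 42% in these data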;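 also: stock transfer was 100 nL into about 11 µL; a reference agonist was the positive control; negative values mostly stem from fluorescent compounds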
LANA-H2B inh – blocks KSHV LANA binding to histone H2A/H2B; Q9QR71; inhibition, % (test concentration not listed); cell-free LANA-H2A/H2B peptide, fluorescence polarization; 320,000 compounds, 0.6% hits; in the data active = inhibition mostly above about 10%, no sharp cut-off; inactive = mostly below about 6.7%;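 also: stock transfer was 7.5 nL into about 10 µL; 0% = median of vehicle wells and 100% = median of positive control wells; one replicate is shown; the record names a cut of 25% in any replicate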
HNF4A DNA FP – change in binding of human HNF4 alpha to DNA; P41235; HNF4a-FITC DNA binding, fluorescence polarization, 1 h; activity change, % at 10 µM; 360,000 compounds, 0.3% hits; AID 1224865; in the data active = activity change above about 30%, passing the limit was not always enough;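 also: controls were the assay level and a saturating level of protein; the project sought stronger binding though the title names inhibitors; some compounds called inactive have numbers as strong as hits; positive values seem to mean higher polarization but the record does not say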
Target sequence (P41235 whole entry, looked up): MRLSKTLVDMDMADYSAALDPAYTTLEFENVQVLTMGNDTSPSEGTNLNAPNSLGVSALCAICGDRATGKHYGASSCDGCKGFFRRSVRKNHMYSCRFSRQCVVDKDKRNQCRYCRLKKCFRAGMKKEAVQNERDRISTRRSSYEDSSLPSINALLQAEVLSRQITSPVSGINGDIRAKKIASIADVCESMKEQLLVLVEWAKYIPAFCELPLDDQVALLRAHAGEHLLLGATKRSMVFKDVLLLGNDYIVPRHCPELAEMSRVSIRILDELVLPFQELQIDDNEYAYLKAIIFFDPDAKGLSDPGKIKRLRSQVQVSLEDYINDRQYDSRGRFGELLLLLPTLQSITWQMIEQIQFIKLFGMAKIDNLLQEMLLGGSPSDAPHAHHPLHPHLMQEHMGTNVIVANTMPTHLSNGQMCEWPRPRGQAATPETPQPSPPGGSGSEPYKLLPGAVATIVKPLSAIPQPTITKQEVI
UCH37 inh – human UCH37 deubiquitinating enzyme inhibition | inhibition, % (no concentration beside the values) | 330,000 compounds, 0.33% hits | Q9Y5K5 | purified proteasome/UCH37, Ub-AMC cleavage fluorescence | AID 588478;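 active = mean of two replicates above 20%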;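 also: 0% = compound-free wells with enzyme and 100% = wells lacking proteasome; stock transfer was 100 nL into about 20 µL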
Target sequence (Q9Y5K5 whole entry, looked up): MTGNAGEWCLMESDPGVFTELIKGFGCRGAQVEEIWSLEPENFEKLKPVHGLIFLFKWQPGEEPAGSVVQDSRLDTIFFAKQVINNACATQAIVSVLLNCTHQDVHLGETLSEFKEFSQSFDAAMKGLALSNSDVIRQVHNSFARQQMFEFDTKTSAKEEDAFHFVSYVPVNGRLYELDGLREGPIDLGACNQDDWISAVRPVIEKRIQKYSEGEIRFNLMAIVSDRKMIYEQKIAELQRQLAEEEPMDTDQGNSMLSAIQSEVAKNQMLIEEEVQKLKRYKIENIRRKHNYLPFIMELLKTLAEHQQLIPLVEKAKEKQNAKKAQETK
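system = Proteasome-associated human UCH37 deubiquitinase | amount = 0.15 nM proteasome as dispensed | medium = pH 7.4 Tris-HCl (50 mM) with ovalbumin, ATP-MgCl2, DTT | incubation = 30 min preincubation with enzyme, 25 min cleavage at room temperature | detection = AMC fluorescence 355/460 nm | read-out basis = percent inhibition | controls = no-proteasome and no-compound wells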
Ecoli growth – E. coli growth inhibition; Escherichia coli growth, OD600, 23 h; stronger effect = lower value; OD600 absorbance (test concentration not listed); 330,000 compounds, 0.21% hits;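 active = OD600 absorbance below the run mean of sample wells minus 3.6 SD, in any replicate, cut at about 0.56 in these data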;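 also: stock transfer was 300 nL into about 60 µL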
Vif TR-FRET – inhibitors of Vif binding to APOBEC3G peptide, primary screen, biochemical, TR-FRET, GST-Vif 1-94, biotin-A3G peptide, dose response retest (AID 1117319); TR-FRET GST-Vif / biotin-A3G peptide binding; higher % means a stronger effect; test concentration not given here; strong numbers were not always called active; 260,000 compounds, 0.57% hits; inhibition, %; hits with a dose series show IC50 in µM;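 active = above the screen mean plus three standard deviations and confirmed in dose response; inconclusive = results disagree or hit not tested in dose response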;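 also: Vif residues 1-94 fused to GST binding biotinylated APOBEC3G peptide 110-148; 0% = full assay without inhibitor and 100% = GST in place of GST-Vif; retest series ran down from 100 µM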
A1 inh – inhibitors of the anti-apoptotic protein A1, read as caspase activation. MEF A1-2A-BIM cells, Caspase-Glo 3/7 luminescence, 3 h; percent of clofoctol response, vehicle zero. caspase activation, % (no concentration beside the values). 330,000 compounds, 0.066% hits. AID 2462;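 active = over half of replicate activation scores above 10%, or exactly half above 10 with the replicate mean above 10; inconclusive = replicate mean below 10 yet half the replicates above 10; inactive = over half of replicates below 10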;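 also: wells of about 30 µL received 50 nL stock; many hits fall short of the cut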
Active calls of the source: *; i = inactive; ? = inconclusive; nt = not tested or not shown; & = joins results of further samples. This is a random part of the collection. Share with any hit: about 2.1%.

SMILES	Beta2AR agonist	LANA-H2B inh	HNF4A DNA FP	UCH37 inh	Ecoli growth	Vif TR-FRET	A1 inh
COc1ccc(C(=O)N/N=C/c2ccc(OC)c(COc3ccc(F)cc3F)c2)cc1	0	-0.9	5.8	nt	nt	nt	-0.1
O=[N+]([O-])c1ccc(COc2ccc(CNc3ccccc3)cc2)cc1	2	5.2	-1.5	2.3	0.71	10%	-2.7
CCn1c(=O)c2ccccc2n(CC(=O)NCCC2=CCCCC2)c1=O	13	0.1	-0.9	-1.4	0.68	nt	0.2
COc1ccc(/C=N/NC(=O)CC(=O)NCc2cccnc2)c(OC)c1	26	-4.6	2.7	nt	nt	14%	0.2
CCc1cc(-c2n[nH]c(C)c2-c2nc3ccccc3n2C)c(O)cc1O	1	1.6	2.7	-0.8	0.58	-8%	0.4
Cc1ccc(OCC(=O)N2CC(C)OC(C)C2)c([N+](=O)[O-])n1 (stereo unspecified)	-7	-0.2	5.7	6.1	0.71	10%	0.3
CCC(C)Sc1cccc(-c2nc3ccc(C)cn3c2NCc2ccccc2)c1 (stereo unspecified)	16	0.8	0.3&4.0	nt	nt	nt	-0.3
Cc1ccc(S(=O)(=O)N2CCC(Oc3cccc(C(F)(F)F)c3)CC2)cc1	6	-7.7	1.9	5.5	0.7	2%	0.5
O=c1[nH]c(SCCOc2cccc3ccccc23)nc2ccccc12	-1	5.1	-1.1	3.8	0.71	nt	0.8
CC1CN(c2ccc(NC(=S)Nc3ccc(N4CC(C)OC(C)C4)cc3)cc2)CC(C)O1 (stereo unspecified)	-2	-1.1	1.5	5.0	0.65	nt	0.3
COC(=O)N(C)CCCC1(C)C(=O)N(C)c2ccc(O)cc21 (stereo unspecified)	-2	-0.4	4.7	3.2	0.69	?	0.0
Cc1nc2sc(C(c3ccco3)N3CCC(Cc4ccccc4)CC3)c(O)n2n1 (stereo unspecified)	-7	2.5	2.1	0.7	0.66	9%	0.1
COc1ccc(-n2c(Cn3c(=O)sc4ccccc43)nnc2SCC(=O)N2CCCCC2)cc1	-8	1.0	0.1	3.5	0.74	0%	-1.3
Cc1nc(S(=O)(=O)NC2CCCCC2)c(C#N)c(C)c1Cl	-13	-0.5	-1.2	-0.3	0.76	-10%	-0.7
CCCN(CC(=O)Nc1ccccc1OC)C(=O)CCNC(=O)c1ccccc1OC	-5	41*	-1.3	0.1	0.68	nt	0.9
O=C(O)c1nn(CCOc2ccc(Br)cc2)c(=O)c2ccccc12	11	13*	2.7	1.0	0.64	nt	-0.5
CS(=O)(=O)c1ccc(Cl)c(NC(=O)CSc2n[nH]c(N)n2)c1	0	-2.0	-1.3	4.2	0.66	10%	1.2
CC(=O)c1nn(-c2cccc(Br)c2)cc1C(=O)c1ccc(C)cc1	-5	-0.5	0.5	1.4	0.7	-8%	-0.4
COc1ccc2nc(SCC(=O)NC3CCCCC3C)[nH]c2c1 (stereo unspecified)	-11	3.4	10	-0.2	0.66	6%	0.3
Cc1nc(S(=O)(=O)Cc2ccccc2)nc2c1CCC2	-14	2.6	-7.7	2.5	0.68	12%	0.0
COC(=O)c1ccc(COC(=O)c2cnccn2)cc1	2	-3.5	-3.3	0.0	0.66	-11%	-0.3
CCOc1ccc(NC(=O)/C(C#N)=C/c2cn(CC(=O)O)c3ccccc23)cc1	-2	-0.5	2.9	7.7	0.67	3%	0.8
O=C(COc1ccc2oc(-c3ccco3)cc(=O)c2c1)N1CCCCC1	-3	0.3	-1.9	i	0.7	-4%	-0.3
CN(c1ccc(C(=O)N2CCOCC2)cc1[N+](=O)[O-])C1CCCCC1	-7	-1.5	-3.4	5.4	0.65	2%	2.8
Cc1ccccc1N1CC(C(=O)O)CC1=O (stereo unspecified)	3	1.4	-3.0	-1.8	0.68	7%	0.2
Cc1ccc(C)c(Sc2ccc(S(=O)(=O)Nc3ccc(C(=O)O)cc3)cc2)c1	-2	-0.5	-0.4	-0.4	0.68	-8%	-2.0
CN(C)S(=O)(=O)c1cccc(C(=O)Nc2ccc(N3CCOCC3)cc2)c1	2	-3.5	-0.3	2.8	0.7	19%	-1.1
CCc1ccc(S(=O)(=O)Nc2ccc(Cl)cn2)cc1	-2	-0.3	-3.5	0.5	0.64	7%	0.1
CCOP(=O)(OCC)C(NC(=O)Nc1ccccc1)C(N)=O (stereo unspecified)	-2	-8.4	-0.7	-1.1	0.66	-2%	-0.2
CN(C1CCCCC1)S(=O)(=O)c1ccc(-c2ccccn2)s1	-15	-0.3	-5.3	1.5	0.63	-5%	-0.7
C=CCn1c(SCC(=O)Nc2ccc(OC)cc2)nc2c([nH]c3ccccc32)c1=O	-1	0.6	0.5	-3.2	0.74	-5%	0.4
CCOc1ccc(NC(=O)CSc2nnc(-c3ccccc3Cl)n2Cc2ccco2)cc1	4	-2.2	0.9	2.4	0.75	1%	0.9
Cc1ccc(S(=O)(=O)N2CCN(C)CC2)cc1-c1nnc2c3ccccc3c(C)nn12	-11	0.5	-1.3	3.1	0.71	17%	-0.3
Cc1sc2ncn(CC(=O)N3CCOCC3)c(=O)c2c1-c1ccccc1	0	0.7	-2.6	7.9	0.69	0%	-1.4
Cc1ccc2nc3c(nc2c1)-c1ccccc1C3=O	3	-5.2	1.7	5.5	0.7	-2%	-1.6
CCOC(=O)N1CCN(C(=O)c2ccc3c(=O)n(-c4ccc(OC)cc4)c(=S)[nH]c3c2)CC1	11	5.5	-2.7	2.1	0.74	-5%	-0.2
COc1ccc(NS(=O)(=O)c2ccc(N3CCCC3)c(NC(=S)Nc3cccc(C)c3C)c2)cc1	3	1.3	-2.7	-1.6	0.73	-24%	0.5
Cc1cc(S(=O)(=O)/N=C(\N)c2ccc(C(N)=O)cc2)cc(C)c1F	7	0.0	-1.3	nt	nt	2%	0.1
O=C(c1cccs1)N1CCN=C1SCc1ccc(Cl)cc1	-10	-0.1	3.2	0.8	0.66	6%	1.5
COc1ccc(-c2noc(C3CCCN(C(=O)c4ccccc4OC)C3)n2)cc1OC (stereo unspecified)	8	5.8	0.7	2.7	0.72	0%	-1.6
COc1cc(NC(=O)CCc2nnc3ccc(N4CCC5(CC4)OCCO5)nn23)cc(OC)c1	3	-1.3	-1.6	0.3	0.64	nt	0.8
CC12CN(C(=S)Nc3ccccc3)CC(C)(CN(C(=S)Nc3ccccc3)C1)C2=O	-6	4.7	-1.6	nt	nt	2%	0.2
CCOC(=O)c1ccc(NC(=O)Cn2ncc(Cl)c(Cl)c2=O)cc1	74*	-1.5	-7.8	0.8	0.65	2%	2.6
Cc1ccc(C(=O)CSc2ncnc3sc4c(c23)CCCC4)cc1	-8	2.0	-1.9	4.0	0.71	8%	0.0
Cc1nn(C(C)C(=O)NCCCN2CCCCC2C)c(=O)c2c1sc1ccccc12 (stereo unspecified)	4	-1.9	5.0	-0.2	0.72	nt	1.0
COc1ccc(NC(=S)Nc2ccc3nccnc3c2)cc1	12	6.0	0.4	7.6	0.67	?	0.5
COc1ccc(COC(=O)C2=C(C)NC(=O)NC2c2ccccc2OC(C)C)cc1 (stereo unspecified)	-2	-0.1	-5.2	3.2	0.66	nt	0.6
CC(C)(OC(=O)c1ccc(C#N)cc1)c1cc2ccccc2c(=O)o1	-7	-3.2	-5.2	-1.5	0.65	nt	-0.4
CCCC(=O)Nc1c(C(=O)OCC)[nH]c2ccccc12	13	-2.8	0.9	-0.5	0.7	-2%	0.8
CCCN(c1ccc(C(C)C)cc1)S(=O)(=O)c1c(C)noc1C	4	1.6	-4.6	2.1	0.66	-2%	0.4
O=C(CSc1ncn[nH]1)N/N=C/c1ccc(F)cc1	-1	4.9	-4.7	nt	nt	nt	0.0
COc1ccc(-n2c(SC)nc3sc4c(c3c2=O)CCN(C)C4)cc1	5	nt	3.3	6.5	0.67	-5%	nt
CCOc1cccc(CN2CCCC(C(=O)c3cccc(C(F)(F)F)c3)C2)c1O (stereo unspecified)	2	-0.5	3.0	2.2	0.63	21%	-0.4
CC1=C(C(=O)N2CCOCC2)C(c2ccc(O)cc2)NC(=S)N1 (stereo unspecified)	-5	2.5	0.1	5.5	0.64	17%	0.7
O=P(Cc1ccccc1O)(c1ccccc1)c1ccccc1	3	0.5	3.7	5.5	0.71	nt	-2.0
CCCCn1c(N)c(N(CC(C)C)C(=O)c2cccc(S(=O)(=O)N3CCCCCC3)c2)c(=O)[nH]c1=O	-5	1.0	4.8	1.0	0.68	-13%	-0.6
COc1ccc(C(=O)N/C=C/n2cnc3cc(C(F)(F)F)ccc32)cc1	23	8.3	-5.3	1.3	0.65	-9%	1.3
O=C(OCC(=O)N1CCC(Cc2ccccc2)CC1)c1ccccc1O	-3	5.3	7.1	0.3	0.71	0%	-1.2
Clc1ccc(-c2nc3cc(CN4CCCCC4)ccc3o2)cc1	6	3.4	1.0	-5.9	0.63	-7%	1.0
COc1cccc(C2CC(c3cccc(C)c3)n3ncnc3N2)c1 (stereo unspecified)	3	-0.2	-4.5	3.7	0.74	6%	0.4
Additional records follow.
SMILES	Beta2AR agonist	LANA-H2B inh	HNF4A DNA FP	UCH37 inh	Ecoli growth	Vif TR-FRET	A1 inh
O=C(CN1CCOCC1)OCCCc1ccccc1	-10	-13	-0.4	5.0	0.76	?	-0.9
Cc1cnc(C(=O)OCC(=O)Nc2cc(Cl)cc(Cl)c2)cn1	14	-6.7	5.0	3.3	0.7	1%	-0.1
COn1c(SCc2cccc(Cl)c2)nc2ccccc2c1=O	6	9.3	1.6	2.6	0.72	4%	0.2
S=C(N/N=C/c1ccccc1Cl)Nc1cccc(Cl)c1Cl	2	-7.7	-5.2	nt	nt	nt	-0.8
[O-]/[N+](=C\c1cccc(Br)c1)c1ccccc1	-10	1.1	-1.2	2.0	0.68	nt	-4.6
Cc1ccc2c(CC(=O)N(C)c3c(N)n(Cc4ccccc4)c(=O)[nH]c3=O)coc2c1	-1	-4.1	1.9	nt	nt	nt	-0.2
CCC(C(=O)N1CCN(S(=O)(=O)c2sc(C(=O)O)c(C)c2C(=O)O)CC1)c1ccccc1 (stereo unspecified)	-3	-2.8	2.4	4.0	0.7	4%	0.2
COc1ccc(CNC(=O)c2cc(=O)c3cc(C)ccc3o2)cc1	5	-5.7	-1.7	6.6	0.69	-2%	1.3
COc1ccc(-c2noc(N3CCC(C(=O)NCc4ccc(Cl)cc4)CC3)n2)cc1	-3	7.6	-1.1	6.3	0.73	nt	-2.0

Entries listed so far printed as active in Beta2AR agonist.
structure	Beta2AR agonist	LANA-H2B inh	HNF4A DNA FP	UCH37 inh	Vif TR-FRET
CCOC(=O)c1ccc(NC(=O)Cn2ncc(Cl)c(Cl)c2=O)cc1	74*	-1.5	-7.8	0.8	2%

Four compounds picked at random from those above, as already listed:
SMILES	Beta2AR agonist	LANA-H2B inh	HNF4A DNA FP	UCH37 inh	Ecoli growth	Vif TR-FRET	A1 inh
CS(=O)(=O)c1ccc(Cl)c(NC(=O)CSc2n[nH]c(N)n2)c1	0	-2.0	-1.3	4.2	0.66	10%	1.2
COc1ccc(-n2c(Cn3c(=O)sc4ccccc43)nnc2SCC(=O)N2CCCCC2)cc1	-8	1.0	0.1	3.5	0.74	0%	-1.3
Cc1nn(C(C)C(=O)NCCCN2CCCCC2C)c(=O)c2c1sc1ccccc12 (stereo unspecified)	4	-1.9	5.0	-0.2	0.72	nt	1.0
CC12CN(C(=S)Nc3ccccc3)CC(C)(CN(C(=S)Nc3ccccc3)C1)C2=O	-6	4.7	-1.6	nt	nt	2%	0.2
